Sa ugtP lethal – growth inhibition of ugtP-null S. aureus, primary screen, RN4220 ugtP deletion, OD600. 16 h; some inactives read as strong as hits. growth inhibition, % (test concentration not listed). 330,000 tested, 0.54% active. AID 1259309, 2017;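 active means z-score under -3 and OD600 up to 0.15 on both plates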;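 further: plate controls were untreated wells for no effect and antibiotic for full effect; wells of about 80 µL received 100 nL stock; the first replicate is given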
PrP UTR inh – inhibition of PrP 5' UTR reporter expression | cell-based PrP 5' UTR mRNA reporter, plate reader | 340,000 tested, 0.35% active | inhibition, % (concentration not given with the values);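 active means every replicate at 50% or more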;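 further: 0 = median of the neutral control wells; tested in H4 reporter cells; numbers are from one replicate; inactives centre near -14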
Mtb hypoxia inh – PubChem AID 1159583; M. tuberculosis hypoxia-regulated fluorescent reporter, fluorescence; fluorescence inhibition, % (test concentration not listed); 300,000 tested, 0.1% active;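 active means 35 to 45% if threefold the growth effect, above 45% if 1.5-fold the growth effect; inactive means the rest, general growth blockers included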;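 further: wells of about 50 µL received 100 nL stock; 0% = vehicle wells and 100% = reference inhibitor wells; whole bacteria with a GFP reporter of the hypoxia response; strong numbers were not always called active; many hits fall short of the cut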
RN4220 kill – growth inhibition of S. aureus RN4220, primary screen, OD600; 330,000 tested, 0.33% active; 16 h; inhibition, % (concentration not given with the values);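 active means z-score of -3 or lower and OD600 up to 0.18 on both plates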;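 further: plate controls were untreated cells for no effect and reference antibiotic for full effect; stock transfer was 100 nL into about 80 µL; one replicate is shown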
BJeLR viability – MLPCN primary cell-based screen for lethality selective to Ras in HRASV12 cells. 300,000 tested, 0.17% active. AID 1554, 2009. BJeLR (HRASV12) viability, CellTiter-Glo ATP luminescence, 48 h; reference of the scale not given here. inhibition, % (no concentration beside the values);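 active means replicate mean above 50%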;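 further: 50 nL library stock added to about 25 µL; numbers are from one replicate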
Autofluor counter – compound fluorescence in toxin protease inhibitor counterscreen. compound autofluorescence counterscreen, microsphere flow cytometry; stronger effect = higher value. fluorescence intensity (test concentration not listed). 360,000 tested, 3.1% active;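 active means at least 3 SD above the mean of all compounds, about 16000 in these data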;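 further: 100 nL of 1 mM stock went into each well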
Mtb hypoxia inh growth – recorded beside Mtb hypoxia inh, whose call it bears; growth inhibition, %; measured here: M. tuberculosis growth (absorbance);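 0% = vehicle and 100% = reference antibiotic; read after six days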
The depositor's hits bear a star; / = not tested or not shown; & = joins results of further samples.

Sequence of screens: Sa ugtP lethal, PrP UTR inh, Mtb hypoxia inh, Mtb hypoxia inh growth, RN4220 kill, BJeLR viability, Autofluor counter
1	CC(C)(C)C(=O)COC(=O)c1ccccc1O
→ 0, 8, /, /, 2.4, -2, 4545
2	CC(=O)Nc1ccc(NC(=O)C(C)n2c3ccccc3c3nc(=O)cc(C)n32)cc1 (configuration not stated)
→ 3, 34, 5, -2, 0.1, 4, 4333
3	O=C(COC(=O)c1ccc(Cl)c(S(=O)(=O)N2CCc3ccccc3C2)c1)Nc1ncc(Cl)cc1Cl
→ 5, -15, 5, 2, 25, 6, 2658
4	COc1ccc(CN2C(=O)CNC2=S)cc1
→ 7, -19, -8, 7, -2.1, -6, 4024
5	O=C(Nc1ncc2c(n1)CC(c1cccc(Cl)c1)CC2=O)c1ccco1 (configuration not stated)
→ 7, -9, -2, -2, 3.9, -16, /
6	Cc1ccc(/C=N/n2c(-c3ccncc3)n[nH]c2=S)s1
→ /, -2, /, /, /, -4, 4812
7	CCOc1ccc2[nH]c(=O)c(CN(Cc3ccco3)C(CC)c3nnnn3Cc3ccccc3)cc2c1 (configuration not stated)
→ /, -35, /, /, /, 1, 3022
8	Cc1ccccc1COCC(CC(C)C)N1CCN(C(=O)c2cccc(C(F)(F)F)c2)CCC1=O (configuration not stated)
→ 5, /, 22, 13, 8.3, /, /
9	O=C(c1ccc(Br)o1)N1N=C(c2ccc(Cl)cc2)CC1c1ccco1 (configuration not stated)
→ -51, -12, -4, -2, -3.1, 1, 5482
10	COc1ccc(C(=O)NCCS(=O)(=O)NCc2cccs2)cc1
→ 11, -24, -4, 2, 8.3, -6, 5119
11	O=C(O)C#Cc1cccc2ccccc12
→ 2, 12, 4, -5, 3.3, 13, 4472
12	CCCCCn1c(=O)c(C(=O)NCc2ccccn2)c(O)c2ccccc21
→ 10, -13, /, /, 2.8, 6, 2896
13	COCCNC(=O)c1onc(CSc2cc(C)cc(C)c2)c1C(=O)NCCOC
→ 0, 0, 1, 1, 4.2, -6, 2908
14	Cc1c(C)n(CCN(C)C)c2ccc(C(=O)OCCN(C)C)cc12
→ 0, -16, 5, 4, 2.0, 6, 5182
15	CN(Cc1cccs1)C(=O)CCc1c[nH]c2ccccc12
→ 4, -15, 7, -2, 10, 2, 3424
16	COCCCNC(=O)c1ccc(Cn2c(=O)c3ccccc3n(Cc3ccccc3C#N)c2=O)cc1
→ 13, 20, -4, 21, -0.6, -3, 3995
17	CC(C)[C@H](NC(=O)C1CC(=O)N(c2ccc3c(c2)OCCO3)C1)C(=O)NC1CCCC1 (some centres not stated)
→ 3, -10, 8, 8, 2.2, 8, 5000
18	CCC(=O)N(Cc1ccc(S(N)(=O)=O)cc1)C1CC(=O)N(c2ccc(OC)cc2)C1=O (configuration not stated)
→ 5, -13, /, /, 0.3, 6, 2739
19	O=C(Nc1ccccc1N1CCN(C(=O)c2ccc(Cl)cc2)CC1)c1cc2ccccc2o1
→ 2, 2, /, /, -3.8, -3, 4183
20	CC(C)c1ccc(C2C3=C(CC(C)(C)CC3=O)NC3=C2C(=O)c2ccccc23)cc1 (configuration not stated)
→ -26, -26, -3, 7, -1.0, -2, 13311

Entries by screen from the list:
Mtb hypoxia inh for entries 9 to 13, in order: -4, -4, 4, /, 1
BJeLR viability for entries 9 to 13, in order: 1, -6, 13, 6, -6

Further records follow.
Sequence of screens: Sa ugtP lethal, PrP UTR inh, Mtb hypoxia inh, Mtb hypoxia inh growth, RN4220 kill, BJeLR viability, Autofluor counter
21	Cc1ccc(Cc2cc(C)n[nH]c2=O)cc1
→ 7, /, 11, 5, 3.8, -6, /
22	Cc1cccc(-c2nsc(SCC(=O)NCc3ccco3)n2)c1
→ 6, -9, 25, 9, -5.5, -4, 2880
23	Cn1nc(C(F)(F)F)c(/C=N/OC(=O)c2ccccc2)c1Cl
→ /, -18, /, /, /, 1, 9238
24	COc1ccc(Nc2cc(C(=O)NCc3cccnc3)c3ccccc3n2)c(OC)c1
→ -5, /, 1, -1, 6.7, 0, /
25	COc1cccc2[nH]c3c(=O)n(CCCN4CCOCC4)cnc3c12
→ 4, 9, 2, -3, 3.6, -1, 3807
26	C/C(=N/N=C1\SCC(=O)N1c1ccccc1)c1ccc(C)cc1
→ /, -13, /, /, /, 11, 5704
27	CCc1c(C)c2ccc(OCC(=O)NCC3CCC(C(=O)O)CC3)cc2oc1=O (configuration not stated)
→ -13, -11, /, /, 1.1, -5, 5900
28	N/C(=N\OC(=O)c1ccc(F)cc1)c1nonc1N
→ /, -19, /, /, /, 0, 2598
29	Cc1cccc(S(=O)(=O)N2CCn3cccc3C2C)c1 (configuration not stated)
→ 0, 3, -1, 2, 2.0, /, 9005
30	O=C(CCNS(=O)(=O)c1ccc(Br)cc1)Nc1cccc(F)c1
→ 6, -24, 10, 9, -1.3, 1, 3877
31	C=CCN(C(=O)CCC(=O)Nc1cc(C)on1)C(C(=O)NC1CCCC1)c1ccc(CC)cc1 (configuration not stated)
→ 8, -28, 6, 6, 1.4, -5, 3652
32	Cc1ccccc1OCc1nnc(SCC(=O)N2CCc3ccccc32)n1C
→ 4, -13, 8, 2, 4.2, -18, 9782
33	COc1ccccc1NC(C#N)c1ccccc1OCc1ccccc1 (configuration not stated)
→ 38, -12, 2, 6, 11, 12, 9754
34	CC(=O)Nc1ccc(C(=O)OCC(=O)Nc2ccccc2F)cc1
→ 8, -21, 4, 7, -0.9, 3, 4206
35	O=C(Cc1ccccc1)Nc1ccc(NC(=O)C2CCCCC2)nc1
→ -12, -13, -2, 3, -7.0, -2, 4370
36	COc1cccc(-c2nn(-c3ccccc3)cc2/C=C(\C#N)C(=O)NCCCn2ccnc2)c1
→ -20, -48, -3, -1, -3.1, 2, 3137
37	CC(C)C[C@@]12C(=O)N(c3cccc(Br)c3)C(=O)N1[C@H](c1ccc(Cl)cc1)[C@@H]1C(=O)N(C3CCCCC3)C(=O)[C@@H]12
→ /, -13, /, /, /, 1, 3820
38	COc1ccc(-c2nnc(SCc3ccccc3F)o2)cc1
→ -3, -66, /, /, 7.5, -3, 2362
39	COc1ccc(S(=O)(=O)N2CCCC2C(=O)NCC(=O)Nc2cccc(Cl)c2C)cc1 (configuration not stated)
→ 8, -24, 11, 2, -1.1, -2, 3817
40	CNS(=O)(=O)c1cccc(C(=O)OCC(=O)N2CCN(C(=O)c3ccco3)CC2)c1
→ 8, 15, 4, -6, 5.4, /, 3017

Complete entries, looked up by structure. Order of values: Sa ugtP lethal	PrP UTR inh	Mtb hypoxia inh	Mtb hypoxia inh growth	RN4220 kill	BJeLR viability	Autofluor counter
`O=C(CCNS(=O)(=O)c1ccc(Br)cc1)Nc1cccc(F)c1` in the list: 6	-24	10	9	-1.3	1	3877
`Cc1cccc(-c2nsc(SCC(=O)NCc3ccco3)n2)c1` in the list: 6	-9	25	9	-5.5	-4	2880
`Cc1ccc(Cc2cc(C)n[nH]c2=O)cc1` in the list: 7	/	11	5	3.8	-6	/
`Cc1cccc(S(=O)(=O)N2CCn3cccc3C2C)c1` (configuration not stated) in the list: 0	3	-1	2	2.0	/	9005

More structures:
Sequence of screens: Sa ugtP lethal, PrP UTR inh, Mtb hypoxia inh, Mtb hypoxia inh growth, RN4220 kill, BJeLR viability, Autofluor counter
41	O=C(c1ccc(Br)cc1)N1CCN(S(=O)(=O)c2ccccc2)CC1
→ 5, -13, 3, 2, -7.5, 5, 5537
42	CN(C)S(=O)(=O)c1cccc(NC(=O)CN(CCO)CC(=O)Nc2cccc(S(=O)(=O)N(C)C)c2)c1
→ 4, -16, 17, 7, 1.0, 3, 3918
43	Cc1cccc(N2CCN(CC(=O)NCc3ccc(Cl)cc3)CC2)c1C
→ -12, -5, -2, 10, -1.8, -1, 3723
44	N#Cc1nc(-c2ccc(OCc3ccccc3)cc2)oc1N1CCC(C(N)=O)CC1
→ 0, -2, 7, -5, -3.4, 6, 2439
45	NNC(=O)CCN1CCN(C(c2ccccc2)c2ccccc2)CC1
→ 3, -5, 10, 2, -0.2, -1, 4477
46	COc1ccc(Cc2nnc(NC(=O)Nc3ccccc3F)s2)cc1OC
→ 7, -19, 11, 8, 6.6, 14, 4091
47	Cc1cccc(NC(=O)CC2SC(=Nc3nccs3)N(C)C2=O)c1 (configuration not stated)
→ -6, /, 14, 12, 7.1, /, /
48	O=C(Cc1ccccc1[N+](=O)[O-])NCCSCc1c(F)cccc1Cl
→ 1, -21, 2, 13, 1.8, -7, 2890
49	CC(=NNC(=O)CCC1C(=O)NN=C1C)c1ccccc1 (configuration not stated)
→ 2, /, -5, 6, -1.4, /, /
50	CCN1C(=O)/C(=C/c2ccc(OCc3ccc(C(=O)O)cc3)c(Cl)c2)NC1=S
→ 10, -28, 14, 5, 58, 5, 4350
51	CCOc1cc(C2C(C(=O)c3ccco3)=C(O)C(=O)N2CC2CCCO2)ccc1O (configuration not stated)
→ 2, -13, 8, 10, 4.8, -9, 5305
52	CSc1ccccc1NC(=O)c1cc(C)on1
→ 14, -17, 3, 3, 10, 4, 11069
53	Cc1ccc(C(=O)Nc2cccc(C(F)(F)F)c2)cc1Nc1cncnc1
→ -18, 9, 4, 9, 1.2, -1, 2929&4037
54	O=C(CCCN1C(=O)c2ccccc2C1=O)OC1CSCC1NC(=O)c1ccccc1 (configuration not stated)
→ -4, 4, 0, 10, -6.2, -8, 2304
55	c1ccc(OCc2nnnn2-c2ccccc2)cc1
→ 12, -24, 4, 3, 7.6, 2, 2274
56	O=C(Nc1ccccc1C(F)(F)F)N1CCN(c2ccccn2)CC1
→ -9, -18, -5, 9, 1.1, 1, 3276
57	Cc1cc(C)n(-c2cccc(Cl)c2C#N)n1
→ 7, -30, 13, 12, 3.2, 4, /
58	CC(=NNC(=O)c1nnn(-c2nonc2N)c1C(C)C)c1ccncc1
→ 3, /, 3, -3, 1.6, /, /
59	COc1ccc(/C=N\NC(=O)C2C(=O)NCC2c2ccccc2)cc1O (configuration not stated)
→ /, 71*, /, /, /, 5, 2650
60	CN(C)CCCN=C(NO)c1ccc(Cl)cc1Cl
→ 5, -10, 3, 14, 1.8, -3, 4415
61	O=C(NNC(=O)c1csc(N2CCOCC2)n1)c1cccnc1
→ -3, -17, -8, -8, 0.3, 3, 4715
62	O=P(c1ccccc1)(c1ccccc1)C(O)c1ccco1 (configuration not stated)
→ 12, -11, /, /, 3.2, 3, 3079
63	COc1cc(C(=O)Nc2ccc3c(c2)N(C(=O)CN2CCN(C)CC2)c2ccccc2CC3)cc(OC)c1OC
→ 8, -30, -13, 2, 4.2, -3, 4821
64	COc1ccc(CNC(=O)CC(C)=NNC(=O)Cc2ccc(OC)c(OC)c2)cc1
→ 7, /, 12, 10, 2.9, /, /
65	O=C(NCc1ccccn1)Nc1cccc(F)c1
→ -2, -19, -3, 4, -0.1, 0, 5954
66	CCOc1ccccc1OCC(=O)Nc1ccc(S(=O)(=O)Nc2nc(C)cc(C)n2)cc1
→ -7, -26, 7, 9, 1.1, 3, 20817*
67	COc1cccc(C2c3[nH]c4ccccc4c3CCN2Cc2ncc[nH]2)c1 (configuration not stated)
→ -12, -33, -7, 5, -0.7, -9, 4889
68	COc1cc(OC)cc(-n2nc(C(=O)NCCCN3CCOCC3)c3ccccc3c2=O)c1
→ -3, -2, /, /, -0.1, /, 2483
69	O=C(Nc1ccccc1N1CCOCC1)c1cc(=O)[nH]c2ccccc12
→ 0, -16, -1, -3, 1.0, /, 3865
70	CC(CNC(=O)c1ccccc1Cl)NC(=O)c1ccccc1Cl (configuration not stated)
→ 0, /, -2, -8, 0.1, 6, 6198
71	COC(=O)C(Cc1ccccc1)NC(=O)C(CC(C)C)NC(=O)OC(C)(C)C (configuration not stated)
→ 14, 2, /, /, 4.6, -13, 2024
72	CCCn1cc(SCC(=O)NCC2CCCO2)c2ccccc21 (configuration not stated)
→ 21, 1, 4, 2, 27, 7, 4777
73	CCOP(=O)(c1ccccc1)C1(C#N)CC1 (configuration not stated)
→ 14, -11, 14, 5, 7.1, 0, 4313
